Sa growth 42C: inhibitors of Staphylococcus aureus growth at 42 °C; relative growth, % (no concentration beside the values); S. aureus RN4220 growth, OD600, 20 h; hits give low values; 170,000 compounds, 0.53% hits; AID 720641;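 active means growth at 42 °C up to 50% and 20 or more points under that at 30 °C, or under 10% at both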;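 further: 300 nL library stock went into each well; scaled to the means of positive and negative controls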
GIV Gai3 FP: blocks GIV peptide binding to rat Galpha-i3. percent of control (FP), % (concentration not given with the values). Galpha-i3/FITC-GIV peptide fluorescence polarization, 90 min; hits give low values; scaled: aluminum fluoride 0%, vehicle 100%. 210,000 compounds, 0.42% hits. AID 1224905. P08753;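 active means replicate mean at 85% of control or lower, very high polarization wells dropped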;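 further: wells of about 15 µL received 100 nL stock; the first replicate is given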
Target sequence (P08753 whole entry, looked up): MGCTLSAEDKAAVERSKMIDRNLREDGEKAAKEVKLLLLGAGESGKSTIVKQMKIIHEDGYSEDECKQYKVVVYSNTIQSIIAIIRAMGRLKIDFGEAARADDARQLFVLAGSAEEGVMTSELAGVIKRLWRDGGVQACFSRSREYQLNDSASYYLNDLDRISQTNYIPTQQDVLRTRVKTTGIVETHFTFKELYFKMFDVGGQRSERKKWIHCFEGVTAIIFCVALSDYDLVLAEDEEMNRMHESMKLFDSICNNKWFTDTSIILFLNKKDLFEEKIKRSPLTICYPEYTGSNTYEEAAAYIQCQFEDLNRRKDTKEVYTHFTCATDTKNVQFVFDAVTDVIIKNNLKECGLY
HCMV UL50-53 inh: disrupts HCMV UL50-UL53 complex binding; HTRF UL50-UL53 interaction, normalized percent inhibition; inhibition, % (no concentration beside the values); 190,000 compounds, 0.15% hits;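 active means both replicates at 50% or more, plus weaker picks with an unusually low signal ratio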;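 further: stock transfer was 100 nL into about 20 µL; 0% = negative control wells and 100% = wells with untagged competitor protein; inactives centre near -12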
Sa growth 42C second temp: also measured in Sa growth 42C; calls as there; relative growth, %; measured here: growth at 30 °C;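 optical density after 20 h as mean of two plates; 100% = untreated growth and lower means inhibition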
Numbers without * were called inactive; x = no result given; & = joins results of further samples.

SMILES	Sa growth 42C	Sa growth 42C second temp	GIV Gai3 FP	HCMV UL50-53 inh
COc1ccc(C2=NN(CCC(=O)NCCc3ccccc3)C(=O)CC2)cc1	83	102	110	x
Fc1ccc(C2CCCN2Cc2cc(F)cc(F)c2)cc1 (stereo not drawn)	x	x	104	7
CC(=O)Nc1ccc(C)cc1-c1nc2ccccc2n(CC(=O)c2ccc(Cl)cc2)c1=O	102	87	106	8
CNC(=S)N/N=C/c1cccnc1	93	87	101	-69
CCN(CC)c1ccc(C(=O)OCC(=O)NCc2ccccc2Cl)cc1	96	95	x	5
COC(=O)C(Sc1c[nH]c2ccccc12)(C(F)(F)F)C(F)(F)F	0.0*	-0.1*	105	-2
Fc1ccc(OCc2nnc3sc(-c4cc5ccccc5[nH]4)nn23)cc1	x	x	101	-6
Cc1c2cnn(-c3ccccc3)c(=O)c2c(C)n1CCCC(=O)NC1CC1	112	80	106	1
CN1CCc2c(sc3c2CN(C(=O)Nc2ccccc2)C(c2ccc(F)cc2)c2cccn2-3)C1 (stereo not drawn)	x	x	105	-21
CCc1cccc(NC(=O)C2Cc3ccccc3N2C(=O)c2ccccc2)c1 (stereo not drawn)	113	94	109	x
Cc1ccc(NC(=O)c2ccc(F)c(S(=O)(=O)NCCc3ccccc3)c2)cc1F	108	97	111	x
CCOC(=O)c1[nH]c(C)c(S(=O)(=O)Nc2c(C)n(C)n(-c3ccccc3)c2=O)c1C	x	x	102	-5
O=S(=O)(NCc1csc(-c2cccs2)n1)c1cccs1	91	81	103	-65
Cc1c2cc(-c3cccs3)sc2nc2c(O)cc(=O)[nH]c12	85	93	x	-50
Cc1ccc(N2CCN(c3nc4ccccc4c4nnc(C)n34)CC2)c(C)c1	94	88	102	x

Molecules listed so far that contain a Cl atom (two):
SMILES	Sa growth 42C	Sa growth 42C second temp	GIV Gai3 FP	HCMV UL50-53 inh
CC(=O)Nc1ccc(C)cc1-c1nc2ccccc2n(CC(=O)c2ccc(Cl)cc2)c1=O	102	87	106	8
CCN(CC)c1ccc(C(=O)OCC(=O)NCc2ccccc2Cl)cc1	96	95	x	5

The listing continues:
SMILES	Sa growth 42C	Sa growth 42C second temp	GIV Gai3 FP	HCMV UL50-53 inh
CC1=C(c2cccc(Cl)c2)S(=O)(=O)NC1=NCc1ccccc1C	100	88	98	11
O=C(Nc1ccccc1I)C1CC(=O)N(c2ccccc2)C1 (stereo not drawn)	104	82	x	2
CC(=O)N1CCc2cc(S(=O)(=O)NC(CC(C)C)C(=O)NCc3ccc(Cl)cc3)ccc21 (stereo not drawn)	115	75	97	x
N#Cc1ccc(-c2cccc(C(F)(F)F)c2)o1	131	105	106	-5
Cc1c(NC(=O)c2cc(-c3cccnc3)n(-c3ccc(F)cc3)n2)c(=O)n(-c2ccccc2)n1C	x	x	100	-7
CC(C)CCn1c(=O)c2ccccc2n2c(COC(=O)c3ccc(S(=O)(=O)N(C)C)cc3)nnc12	86	98	x	5
CC1(C(=O)NC2CCCC2)Cn2c(ccc2-c2ccccc2)C(=O)N1CCC1=CCCCC1 (stereo not drawn)	x	x	99	-14
COc1cccc(N(Cc2nnc3n2CCCCC3)C(=O)Nc2ccccc2)c1	97	101	107	x
CC1=CC(=O)N(c2nc(-c3ccc(Cl)cc3)cs2)C1=O	110	97	98	-12
O=C(CSc1nc2ccccc2o1)OCc1cc(=O)oc2cc3c(cc12)CCC3	72	95	x	-33
CCC(=O)n1nc(-c2ccc(OC)cc2)nc1SC	106	95	101	-10
Cc1ccc(CN(C)C(=O)c2ccc(C)c(NC(=O)c3ccco3)c2)o1	83	91	x	-6
O=C(CC(Cc1ccccc1)C(=O)O)Nc1ccccc1 (stereo not drawn)	89	91	96	-8
S=c1nc[nH]c2ccccc12	96	99	x	-25
Cc1cc(C)n(CC(O)COc2cccc3ccccc23)n1 (stereo not drawn)	100	96	x	-13
COc1ccc(C(=O)N2CCC(Cc3ccccc3)CC2)cc1OC	68	65	x	6
CC1CCN(CN2CC(Cn3c4ccccc4c4ccccc43)OC2=O)CC1 (stereo not drawn)	102	87	98	x
CCOC(=O)c1ccc(CC(=O)c2cc(CC)c(O)cc2O)o1	87	58	111	6
CCN(c1ccc(C)cc1)S(=O)(=O)c1nnc(NC(=O)c2cccs2)s1	112	56	106	-8
COc1ccc(CNC(=O)CN2N=C(c3ccccc3)CCC2=O)c(OC)c1	101	93	103	x
Cc1ccc(NC(=O)C2(c3cccs3)CCOCC2)cc1Cl	133	94	98	x
CCC1C(O)CC(c2ccccc2)NC1c1ccccc1 (stereo not drawn)	106	83	103	-7
CN(C)C1(CNC(=S)NC2CCCCC2)CCCCC1	99	104	x	3
OCC1CCCCN1C(=S)NCCc1ccccc1 (stereo not drawn)	99	89	x	-5
CCn1cc(C(=O)NCc2ccccc2Cl)c(=O)c2cc(S(=O)(=O)N(C)C)ccc21	119	87	103	x
O=C(OCc1ccccc1)c1ccncc1	97	89	x	-18
CCOCCCNC(=O)c1c(NC(=O)Cc2coc3c(C)c(C)ccc23)sc2c1CCC2	102	90	104	-1
CC1CCN(S(=O)(=O)c2ccc3c(c2)CCN3)CC1	95	100	107	x
O=C(Nc1ccc(Br)cc1)N1CCN(c2ccc(-c3noc(C4CCC4)n3)cc2)CC1	x	x	108	-38
O=C(Nc1nnc(-c2ccccc2)o1)Nc1ccccc1Cl	72	56	94	-11

Grouped by structure, the entries above with a CF3 group.
SMILES	Sa growth 42C	Sa growth 42C second temp	GIV Gai3 FP	HCMV UL50-53 inh
COC(=O)C(Sc1c[nH]c2ccccc12)(C(F)(F)F)C(F)(F)F	0.0*	-0.1*	105	-2
N#Cc1ccc(-c2cccc(C(F)(F)F)c2)o1	131	105	106	-5

More compounds
SMILES	Sa growth 42C	Sa growth 42C second temp	GIV Gai3 FP	HCMV UL50-53 inh
Cc1ccc(C2C(N)C(=O)N2c2ccc(C)cc2)cc1 (stereo not drawn)	85	89	107	-11
CCOc1ccc(CCNC(=O)Cn2sc3nc(C)cc(C)c3c2=O)cc1	6.2*	-0.8*	105	-6
COC(=O)c1sc2ncn(-n3cccc3)c(=O)c2c1C	99	86	x	-30
CN(C)S(=O)(=O)c1ccc(C(=O)NC(=O)CSc2nnc(C3CC3)n2-c2ccccc2)cc1	88	86	x	-13
CC(C)C(=O)Oc1cc(OC(=O)C(C)C)c2ccccc2c1	87	78	101	x
O=C(COc1ccccc1Cl)N1CCc2ccccc2C1	83	83	x	-12
Cc1ccc(-c2nnc(N3CCOCC3)c3ccccc23)cc1S(N)(=O)=O	x	x	106	-40
CCOCCOC(=O)C1=C(C)NC2=C(C(=O)CC(c3ccc(Cl)cc3)C2)C1c1ccc(OCC)cc1 (stereo not drawn)	x	x	108	1
CCOc1ccc(C(=O)c2cn(CC(=O)Nc3ccc(F)cc3)c3cc4c(cc3c2=O)OCCO4)cc1	95	105	104	14
COc1cc(NC(=O)Cc2c(C(=O)O)c(C)cn2C)cc(OC)c1	99	93	101	x
O=C(CSCc1cnn(-c2ccccc2)c1-n1cccc1)NCCc1ccccc1	80	81	107	-21
CC(Sc1nc(N)cc(=O)[nH]1)c1nc2ccccc2c(=O)[nH]1 (stereo not drawn)	89	78	104	-13
CNC(=O)NC(=O)CSc1nc2sc3c(c2c(=O)n1C)CCCC3	90	88	x	-19
O=C(Nc1ccc(S(=O)(=O)N2CCCC2)cc1)C1c2ccccc2Oc2ccccc21	x	x	107	16
Cc1ccc(S(=O)(=O)N2C(=O)CCC2C(=O)N2CCc3ccccc32)cc1C (stereo not drawn)	x	x	105	3

Single records, as listed above.
Record of CCOCCOC(=O)C1=C(C)NC2=C(C(=O)CC(c3ccc(Cl)cc3)C2)C1c1ccc(OCC)cc1 (stereo not drawn) = Sa growth 42C = x; Sa growth 42C second temp = x; GIV Gai3 FP = 108; HCMV UL50-53 inh = 1
Record of CNC(=O)NC(=O)CSc1nc2sc3c(c2c(=O)n1C)CCCC3 = Sa growth 42C = 90; Sa growth 42C second temp = 88; GIV Gai3 FP = x; HCMV UL50-53 inh = -19
Record of O=C(Nc1ccc(S(=O)(=O)N2CCCC2)cc1)C1c2ccccc2Oc2ccccc21 = Sa growth 42C = x; Sa growth 42C second temp = x; GIV Gai3 FP = 107; HCMV UL50-53 inh = 16

Other records follow.
SMILES	Sa growth 42C	Sa growth 42C second temp	GIV Gai3 FP	HCMV UL50-53 inh
CCN(CC)C(=O)N1CCc2cc(OC)c(OC)cc2C1c1cc2cc(C)ccc2n(C(=O)N(CC)CC)c1=O (stereo not drawn)	109	92	100	-1
Cn1c(Cc2ccccc2)nnc1SCC#N	97	86	100	-28
COc1ccc(S(=O)(=O)Nc2cc(-c3cn4ccc(C)cc4n3)ccc2C)cc1OC	104	64	96	-23
COc1ccc(N2C(=O)CS(=O)(=O)C23C(=O)N(Cc2ccc(C)cc2)c2ccccc23)cc1Cl (stereo not drawn)	96	88	100	x
CCOC(=O)c1noc2nc(C)nc(NCCCN3CCN(c4cccc(C)c4)C(C)C3)c12 (stereo not drawn)	x	x	109	-25
CCCOc1cccc(C(=O)Nc2c[nH]c(=O)[nH]c2=O)c1	96	90	95	0
Cc1ccc(-c2nc(C=Nc3ccc4c(c3)OCCO4)c(O)o2)cc1	114	87	105	-31
CC(C)OC(=O)c1c(NC(=O)c2cc3nc(-c4ccccc4)cc(C(F)(F)F)n3n2)sc2c1CCCC2	71	90	101	x
COc1ccc(CCNC(=O)c2cc(C3CC3)[nH]n2)cc1OC	x	x	100	3
Cc1nnsc1C(=O)NCCc1c[nH]c2ccccc12	80	83	99	-12
COc1cccc(NC(=O)/C=C/c2ccco2)c1	99	81	105	-62
CCCN(CCC)C(=O)c1cn(C)c2ccc(S(=O)(=O)N(CC)CC)cc2c1=O	90	89	106	x
CC1CCCC(C)N1Cc1cn2ccccc2n1 (stereo not drawn)	94	99	x	18
O=C(Nc1ccc(N2CCC(c3ccccc3)C2)c(C(=O)O)c1)c1ccc(Cl)cc1 (stereo not drawn)	127	86	96&107	x
Cc1c(C(=O)N2CCC(C(=O)Nc3ccc(F)c(Cl)c3)CC2)sc2nc[nH]c(=O)c12	96	92	103	x
Cc1ccc(CNC(=O)c2cc(-c3ccc(C)cc3)nc3n[nH]c(-c4cccc([N+](=O)[O-])c4)c23)cc1	117	72	109	x
COc1ccc(-c2nnc(SCc3nc4ccccc4c(=O)n3CC#N)o2)cc1	94	75	x	5
CC1C(=O)CC(c2ccccc2)OC1c1ccccc1 (stereo not drawn)	112	109	97	-8
Cc1cc(C)cc(N(CC(=O)N=Nc2c(O)[nH]c3ccccc23)S(C)(=O)=O)c1	92	82	105	-86
Cc1nn(C)c2nc(OC(C)C(=O)Nc3ccc4c(c3)OCO4)cc(C(F)(F)F)c12 (stereo not drawn)	x	x	112	-7
Cc1ccccc1NC(=O)C1CCCCC1	99	107	110	0
CCN1C(=O)c2ccccc2S(=O)(=O)c2ccc(C(=O)NCC3CCCO3)cc21 (stereo not drawn)	84	88	103	-4
Fc1ccc(Nc2nc3ccccc3c3nncn23)c(Cl)c1	113	90	102	-8
O=C(CCC1CCCC1)NCc1nc(-c2ccccc2)no1	102	91	108	x
CCCCOc1ccc(/C=C(\C#N)c2nc(-c3cc4c(ccc5ccccc54)oc3=O)cs2)cc1	x	x	102	-11
Cc1ccccc1NC(=O)C(C)Sc1nnc2cc(C)c3ccccc3n12 (stereo not drawn)	x	x	95	-2
CCn1c(=N)c(C(N)=O)cc2c(=O)n3ccccc3nc21	99	80	106	-5
Fc1ccc(Nc2ncnc3c2oc2ccccc23)cc1	103	77	102	x
CCOC(=O)c1noc2ncnc(Nc3ccc(C)cc3Br)c12	x	x	104	-27
COC(=O)CN(c1nc2nc(C)c(Cl)c(C)n2n1)S(=O)(=O)c1ccc(C)cc1	x	x	100	20
CCOc1cccc2cc(C(=O)Nc3nccs3)c(=Nc3ccc(C)c(C)c3)oc12	100	80	103	x
COc1ccc2c(C=NC(C)(C)C)c(O)n(Cc3ccccc3)c(=O)c2c1	108	88	x	-12
CN1C(N)=NC(=O)/C1=C/c1cc(Br)c(O)c(Br)c1	85	84	108	-64
C=CCNc1nnc(SCC(=O)NC2CCS(=O)(=O)C2)s1 (stereo not drawn)	77	96	x	-22
COc1cc(OC)cc(-c2nc3ccccc3c(=O)n2OC(=O)c2cc(C)c(C)cc2C)c1	x	x	96	-18
Nc1nc(SCC(=O)Nc2ccccc2)ncc1S(=O)(=O)c1ccccc1	108	107	109	4
COc1ccc(NC(=O)c2nn(C)c3c2CSc2ccc(Cl)cc2-3)cc1OC	x	x	102	-27
O=C(COc1ccccc1)NCC1CCCO1 (stereo not drawn)	95	101	108	8
CCOc1ccc(CC(=O)NCc2ccc3c(c2)CCN3C(=O)c2ccccc2)cc1OCC	114	87	104	x
Cc1cc(C(=O)CSc2nnc(CCC(N)=O)n2CC(C)C)c(C)n1-c1ccc(C(C)C)cc1	83	89	x	-4
COc1ccc2c(CNCc3ccccc3OC)c(C(=O)O)n(Cc3ccc(F)cc3Cl)c2c1	102	107	104	x
CSc1nc(N/C=C(\C#N)C(=O)c2cccs2)n2nc(C)cc2n1	104	82	188	-65
CCCn1c(=O)oc2cc(NS(=O)(=O)c3ccc4c(c3)n(C)c(=O)n4C)ccc21	x	x	100	8
C=CCn1c(=O)c(C(=O)NCC2CCCN2CC)c(O)c2cc(OC)c(OC)cc21 (stereo not drawn)	80	92	100	-8
C/C(=C\c1nsc(Nc2ccccc2)n1)NCc1ccc(C)cc1	142	85	113	x

Source: PubChem (ICCB-Longwood Screening Facility, Harvard Medical School)
